ALR inh: human ALR oxidase inhibition via reduced H2O2; P55789; purified ALR, DTT oxidation, H2O2 HRP-luminol luminescence; inhibition, % (test concentration not listed); 290,000 compounds, 3.8% hits; AID 485317;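 active = mean and each replicate at 75% or more; inconclusive = only one of the two met; inactive = neither met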;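 also: stock transfer was 7.5 nL into about 7.5 µL; 0% = neutral wells and 100% = wells with inactivated enzyme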
Target sequence (P55789 whole entry, looked up): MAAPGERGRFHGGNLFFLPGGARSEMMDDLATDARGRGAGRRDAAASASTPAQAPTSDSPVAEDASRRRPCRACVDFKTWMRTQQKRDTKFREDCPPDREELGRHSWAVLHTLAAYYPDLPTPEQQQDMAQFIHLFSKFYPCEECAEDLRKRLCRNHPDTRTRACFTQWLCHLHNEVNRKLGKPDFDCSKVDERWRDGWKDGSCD
UCH37 inh: inhibitors of human deubiquitinating enzyme UCH37 | Q9Y5K5 | purified proteasome/UCH37, Ub-AMC cleavage fluorescence | inhibition, % (concentration not given with the values) | 330,000 compounds, 0.33% hits | AID 588478;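 active = mean of two replicates above 20%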;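 also: 0% = compound-free wells with enzyme and 100% = wells lacking proteasome; stock transfer was 100 nL into about 20 µL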
Target sequence (Q9Y5K5 whole entry, looked up): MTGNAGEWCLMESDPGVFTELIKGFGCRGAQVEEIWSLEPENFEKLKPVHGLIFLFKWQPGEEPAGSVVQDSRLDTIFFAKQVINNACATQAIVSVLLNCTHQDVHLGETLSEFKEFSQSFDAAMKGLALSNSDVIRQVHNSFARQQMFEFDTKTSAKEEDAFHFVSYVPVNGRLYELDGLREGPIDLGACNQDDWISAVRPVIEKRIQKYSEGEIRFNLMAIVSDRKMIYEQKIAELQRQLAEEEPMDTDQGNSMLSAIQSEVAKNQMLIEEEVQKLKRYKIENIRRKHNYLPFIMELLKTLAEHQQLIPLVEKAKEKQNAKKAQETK
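Material: human UCH37 enzyme supplied as purified proteasome complex / Amount: 0.15 nM proteasome as dispensed / Buffer or medium: pH 7.4 Tris-HCl (50 mM) with ovalbumin, ATP-MgCl2, DTT / Times: preincubation 30 min, reaction 25 min, room temperature / Technique: AMC fluorescence from Ub-AMC cleavage, excitation 355 nm, emission 460 nm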
B2AR ag: activates human beta-2 adrenergic receptor causing internalization; Am2.2-beta2AR cells, FAP receptor internalization, flow cytometry; reference of the scale not given here; response, % (test concentration not listed); 340,000 compounds, 0.43% hits;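 active = response above a set limit, near 3 SD of response in nonfluorescent compounds, cut at about 42% in these data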;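 also: stock transfer was 100 nL into about 11 µL; a reference agonist was the positive control; negative values mostly stem from fluorescent compounds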
Target sequence (P07550 whole entry, looked up): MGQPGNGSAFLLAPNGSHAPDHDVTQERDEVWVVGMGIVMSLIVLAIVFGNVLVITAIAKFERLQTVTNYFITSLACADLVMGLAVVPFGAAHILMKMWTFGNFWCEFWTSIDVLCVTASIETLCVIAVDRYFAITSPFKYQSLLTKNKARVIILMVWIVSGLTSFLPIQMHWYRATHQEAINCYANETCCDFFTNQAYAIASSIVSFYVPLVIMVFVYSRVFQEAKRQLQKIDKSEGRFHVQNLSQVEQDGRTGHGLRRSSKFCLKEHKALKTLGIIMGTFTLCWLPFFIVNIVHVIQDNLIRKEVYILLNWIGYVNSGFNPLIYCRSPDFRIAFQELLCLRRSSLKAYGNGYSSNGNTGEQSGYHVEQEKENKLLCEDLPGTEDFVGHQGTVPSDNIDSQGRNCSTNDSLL
An asterisk follows results filed as active; u = inconclusive; x = no result given.

Start of the listing, in advance, 5 compounds:
canonical_smiles	ALR inh	UCH37 inh	B2AR ag
CN1C(=O)c2c(sc3c2CCCC3)NC1c1ccccc1O (stereo not drawn)	-1	x	x
CCC(C)[C@@H](N)C(=O)N/N=C/c1cccc2nccnc12 (stereo partly drawn)	-9	x	x
COc1ccc(-c2nn(-c3ccccc3)cc2/C=N/Nc2ccccn2)cc1	-7	x	x
O=c1cc(-c2ccc([N+](=O)[O-])cc2)nc2cc(-c3ccc(Cl)cc3)[nH]n12	-4	x	x
CCOc1ccc(CCNC(=O)c2ccc3c(c2)NC(=O)C2CCCN32)cc1OCC (stereo not drawn)	8	x	x

Results, repeating the preview:
canonical_smiles	ALR inh	UCH37 inh	B2AR ag
CN1C(=O)c2c(sc3c2CCCC3)NC1c1ccccc1O (stereo not drawn)	-1	x	x
CCC(C)[C@@H](N)C(=O)N/N=C/c1cccc2nccnc12 (stereo partly drawn)	-9	x	x
COc1ccc(-c2nn(-c3ccccc3)cc2/C=N/Nc2ccccn2)cc1	-7	x	x
O=c1cc(-c2ccc([N+](=O)[O-])cc2)nc2cc(-c3ccc(Cl)cc3)[nH]n12	-4	x	x
CCOc1ccc(CCNC(=O)c2ccc3c(c2)NC(=O)C2CCCN32)cc1OCC (stereo not drawn)	8	x	x
O=C(CN1C(=O)NC(c2ccccc2)(c2ccccc2)C1=O)c1c[nH]c2ccccc12	-18	x	x
Cc1ccc(C2c3c(oc4ccc(Cl)cc4c3=O)C(=O)N2CCCN2CCOCC2)o1 (stereo not drawn)	u	x	x
COc1ccccc1Nc1nc(-c2sc(NC(=O)c3cccc(Cl)c3)nc2C)cs1	-3	x	x
CN=c1scc(-c2ccccc2Br)n1/N=C/c1ccc[nH]1	5	x	x
C#CCOCCOCCOCCNc1nc(N2CCN(C(=O)[C@H](CCCCN)n3cc([C@@H](N)CO)nn3)CC2)nc(N2CCN(C(=O)[C@H](Cc3cc4ccccc4[nH]3)n3cc([C@@H](N)Cc4ccc(O)cc4)nn3)CC2)n1	-3	x	x
CC(C)c1ccc(C2C(C#N)=C(N)N3C(=C2C#N)Sc2ccccc23)cc1 (stereo not drawn)	-7	x	x
CCCc1cc(=O)oc2c3c(c(Cl)cc12)OCN(CCCO)C3	27	x	x
Cn1c(=O)c(C(=S)NC(=O)C2CC2)c(N)n(Cc2ccccc2)c1=O	0	x	x
COC(=O)C/C=C/[C@@H](C)[C@@H](/C=N/OCC[C@@H]1C=C[C@H](OC(C)=O)[C@@H](COC(C)=O)O1)NS(=O)(=O)c1ccc(C)cc1	-3	x	x
COc1ccc(N(CC(=O)N/N=C/c2ccc3c(c2)OCO3)S(=O)(=O)c2ccccc2)cc1	-8	x	x
CC(C)(C)c1ccc(/C([O-])=C(/C(=S)NCc2ccco2)[n+]2ccccc2)cc1	-3	x	x
Cc1ccc(/C=N/N(C)C2=NS(=O)(=O)c3ccccc32)o1	-3	x	x
Cc1cccc(NC(=O)C2C3C=CC(O3)C2C(=O)O)c1 (stereo not drawn)	-1	x	x
Cc1ccc(O)c(O)c1	-25	x	x
O=C(c1cccc2ccccc12)n1nnc2ccccc21	94*	x	x
CC(=O)c1ccc(Nc2c3c(c(C#N)c4nc5ccccc5n24)CCC3)cc1	7	x	x
CCCC(=O)Nc1cc(C)c(NC(=O)Cc2ccccc2)cn1	-4	x	x
Cc1cc(/C=N/Nc2nc(N)ncc2[N+](=O)[O-])c(C)n1-c1ccccc1F	34	x	x
CCC1C/C(=C/c2ccco2)C(=O)/C(=C/c2ccco2)C1 (stereo not drawn)	97*	x	x
COc1cc2cc(CN(Cc3cccs3)C(=S)Nc3cccc(C)c3)c(=O)[nH]c2cc1OC	3	x	x
CN(C)c1ccc2c3c(cccc13)C(=O)N(c1ccccc1)C2=O	-58	x	x
OCCN1C[C@H](O)[C@@H](O)[C@H](O)[C@H]1CO	-1	x	x
CCc1ccc(C2=NN(CCC(=O)NC3CC3)C(=O)CC2)cc1	-5	x	x
N#Cc1c(NC(=S)NC(=O)c2ccccc2)sc2c1CCN(CCc1ccccc1)C2	-10	x	x
CCOc1ccc(N2C(=O)CN(O)C=C3N=c4ccccc4=C32)cc1	4	x	x
COC(=O)c1cc(NC(=O)c2cccc(Cl)c2)c(=O)oc1/C=C/Nc1cc(C)cc(C)c1	7	x	x
N#CC1=C(Nc2ccccc2)SC=C(c2ccc(F)cc2)N=C1N1CCOCC1	47	x	x
O=S(=O)(Cc1ccccc1)N1CCc2ccccc21	-3	x	x
C=CCn1c(=O)/c(=C2/Sc3ccccc3N2CC)s/c1=C1/C(=O)NN=C1C	9	x	x
CCCCN(C)CC(O)Cn1cc(/C=C/C(=O)c2ccc(OCC)cc2)c2ccccc21 (stereo not drawn)	-4	x	x
CCOc1ccc(NC(=O)CCC(=O)n2nc(C)cc2C)cc1	-8	x	x
CC(=O)OC[C@H]1O[C@H](C/C=N/O[C@@H](C)c2cn([C@H](CO)Cc3ccccc3)nn2)C=C[C@@H]1OC(C)=O	37	x	x
O=C1N=C(C=c2ccc(=Cc3[nH]c(=O)[nH]c3O)cc2)C(=O)N1	3	x	x
CC(=O)O[C@H]1C[C@@H]2CC[C@@H]3[C@H](CC[C@@]4(C)[C@H]3C[C@H]([N+]3(C)CCCCC3)[C@@H]4OC(C)=O)[C@@]2(C)C[C@@H]1N1CCCCC1	-9	x	x
C/C(=N\O)c1ccc(Cl)c(Cl)c1	-2	x	x
Cc1nn(C)c(C)c1S(=O)(=O)N(CC(=O)NCc1ccco1)c1ccc(C(C)C)cc1	-3	x	x
Cn1cc(C(=O)N/N=C/c2cc(Br)cs2)c2ccccc21	-1	x	x
O=C(NCCCO)Nc1ccc2nc(-c3ccco3)c(-c3ccco3)nc2c1	-21	x	x
CCOC(=O)c1c(NC(=S)Nc2ccccc2)sc2c1CCN(CCc1ccccc1)C2	-3	x	x
COc1ccc(NC(=O)c2nc[nH]c2C(=O)NCCCCCNC(=O)OC(C)(C)C)cc1	0	x	x
O=C1OC(c2ccc(F)cc2)=C/C1=C\c1ccc([N+](=O)[O-])o1	-9	x	x
CC1=C(C)Cc2c(OC(=O)c3ccccc3)ccc(OC(=O)c3ccccc3)c2C1	-6	x	x
CC(C)(C)c1cc(CN2CCCCC2)cc(C(C)(C)C)c1O	0	x	x
CCCc1nc(SCC(=O)N2CCCCCC2)c2c(=O)n(C)c(=O)n(C)c2n1	32	x	x
CCOc1ccc(S(=O)(=O)n2nnc3ccccc32)cc1C(C)C	-3	x	x

Ordered by heavy-atom count (largest number first): part of the list above.
canonical_smiles	ALR inh	UCH37 inh	B2AR ag
CC(=O)O[C@H]1C[C@@H]2CC[C@@H]3[C@H](CC[C@@]4(C)[C@H]3C[C@H]([N+]3(C)CCCCC3)[C@@H]4OC(C)=O)[C@@]2(C)C[C@@H]1N1CCCCC1	-9	x	x
COc1ccc(NC(=O)c2nc[nH]c2C(=O)NCCCCCNC(=O)OC(C)(C)C)cc1	0	x	x
CC1=C(C)Cc2c(OC(=O)c3ccccc3)ccc(OC(=O)c3ccccc3)c2C1	-6	x	x
Cn1cc(C(=O)N/N=C/c2cc(Br)cs2)c2ccccc21	-1	x	x

(continued)
canonical_smiles	ALR inh	UCH37 inh	B2AR ag
CC1(C)Cc2c(sc3nc(=S)[nH]c(N)c23)CO1	-12	x	x
N#CC1=C(N)OC2=C(CC/C2=C\c2ccc(F)cc2)C1c1ccc(F)cc1 (stereo not drawn)	3	x	x
CCOc1cc(CNc2ccccc2SC)ccc1O	80*	x	x
Cc1cccc(N/N=C(\C=N\N)C(=O)c2ccc(Br)cc2)c1	-2	x	x
CCc1ccc(CNC(=O)Cn2nc(-c3ccc(C)cc3)ccc2=O)cc1	-4	x	x
C=CCN1C(=Nc2cccnc2)SCC1(O)c1ccc(C)cc1 (stereo not drawn)	11	x	x
O=c1nc(/C=C/c2ccc(-c3ccc(F)cc3)o2)cc(C(F)(F)F)[nH]1	54	x	x
NC(=O)c1ccsc1N	98*	x	x
CS(=O)(=O)C1=NSC2=NC(=O)/C(=C\c3ccc(OC(=O)c4ccco4)cc3)C(=N)N21	6	x	x
CC(=O)O[C@H]1CC[C@]2(C)[C@H]3CC=C4[C@@H]5[C@@H](C)[C@H](C)CC[C@]5(C(=O)O)CC[C@@]4(C)[C@]3(C)CC[C@H]2C1(C)C	2	x	x
COc1ccc(C)c2sc(NNC(=O)COc3ccccc3)nc12	2	x	x
CCCCCCCCCC(=O)Nc1cccnc1	-3	x	x
O=C(CN(c1ccccc1)S(=O)(=O)c1ccccc1)N/N=C/c1ccc(OC2CSC2)cc1	2	x	x
CC(C)CC(=O)O/N=C1\C(=O)N(Cc2ccc(Cl)cc2)c2ccc([N+](=O)[O-])cc21	-6	x	x
Cc1cc(=O)[nH]c(S)c1C#N	18	x	x
CC1(C)Cc2c(c(N3CCOCC3)nc3sc4c(N5CCOCC5)nnnc4c23)CS1	0	x	x
S=C(NCCNCc1ccccc1)NC1CCCCC1	14	x	x
COc1ccc(C2=NC(c3ccccc3)CO2)cc1 (stereo not drawn)	1	x	x
Cc1ccc(S(=O)(=O)c2ccccc2)cc1S	4	x	x
N#CC1=C(N)SC(N)=C(C#N)C1c1ccoc1	-19	x	x
COC(=O)/C=C/C(=O)N1CCN(c2cccc(Cl)c2)CC1	6	x	x
CC(C)n1cnc2c(NCc3ccccc3)cc(N[C@@H](CO)Cc3ccccc3)cc21	-31	x	x
CCCCN1C(=O)/C(=C2/Sc3ccc(Cl)cc3N2CC)SC1=S	-23	x	x
C#CCOCCOCCOCCNc1nc(N2CCN(C(=O)[C@H](Cc3cc4ccccc4[nH]3)n3cc([C@@H](N)Cc4ccc(O)cc4)nn3)CC2)nc(N2CCN(C(=O)[C@H](Cc3cc4ccccc4[nH]3)n3cc([C@@H](N)CC(C)C)nn3)CC2)n1	x	x	73*
O=C(NN=Cc1c[nH]c2ccccc12)C1CC1(c1ccccc1)c1ccccc1 (stereo not drawn)	x	1.2	x
CC(=N/N=C1/NC(=O)CC(C(=O)O)S1)c1ccccc1 (stereo not drawn)	x	6.5	x
FC(F)(F)c1ccc(CN2C[C@@H]3C(c4ccccc4)C4(c5ccccc5)CC3(C4)[C@H]2c2ccccc2)cc1 (stereo partly drawn)	x	-1.4	x
COc1ccc(-c2cccc(C3CC=CC4C3C(=O)N(Cc3ccccc3)C4c3cc(C)ccc3F)c2)cc1 (stereo not drawn)	x	3.9	x
Cc1nc(N=C(N)NC(=O)N2c3ccccc3Sc3ccccc32)nc2ccccc12	x	-1.2	x
COc1ccc(C(C)=NNC(=O)CNC(=O)/C=C\c2ccco2)cc1	x	5.1	x
Cc1cc(C=NNC(=O)C(=O)NCc2ccccn2)c(C)n1-c1ccccc1	x	7.9	x
C#CCOCCOCCOCCNc1nc(N2CCN(C(=O)[C@H](CCC(=O)O)n3cc(C(N)CO)nn3)CC2)nc(N2CCN(C(=O)[C@H](CCCCN)n3cc(C(N)CC(C)C)nn3)CC2)n1 (stereo partly drawn)	x	1.8	x
CON=C/C(C#N)=C/c1cc(C(=O)c2ccc(F)cc2)cn1C	x	-2.4	x
O=C(Cc1cccs1)NN=C/C=C\c1ccccc1[N+](=O)[O-]	x	3.0	x

An excerpt from above, limited to B2AR ag and UCH37 inh.
SMILES,B2AR ag,UCH37 inh
CON=C/C(C#N)=C/c1cc(C(=O)c2ccc(F)cc2)cn1C,x,-2.4
CC(=N/N=C1/NC(=O)CC(C(=O)O)S1)c1ccccc1 (stereo not drawn),x,6.5

Screening data (PubChem BioAssay)

An excerpt, so the mix of outcomes need not match the whole.
